Mtb growth: Mycobacterium tuberculosis H37Rv growth inhibition, cell based, confirmatory dose response (AID 1949). most inactive calls were filed without a number and no value below 0 was filed. inhibition, % at 10 µg/mL, or IC50 in µg/mL where a hit was titrated. hit rate 1.6% among 100,000;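 active = confirmed in a dose series; inconclusive = about 50% or more but not retested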;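 note: bacteria grown 7 days with compound before Alamar blue readout; 0% = untreated bacteria and 100% = reference antibiotic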
Starred values were filed as active, the others as inactive; i = inactive; ? = inconclusive.

SMILES	Mtb growth
CCN(CC)S(=O)(=O)c1ccc(NC(=O)c2ccc(C(C)(C)C)cc2)cc1	7%
Oc1ccc(-c2nnc(-c3ccc(O)cc3)nn2)cc1	26%
COC(=O)c1ccccc1NC(=O)C1CC(=O)N(c2ccc(C(C)C)cc2)C1 (stereo not drawn)	2%
Cc1nc2ccccc2n1Cc1cccc(Cl)c1	i
CC(C)OC(=O)C1C2C=CC3(CN(C4CCCCC4)C(=O)C13)O2 (stereo not drawn)	i
N=c1ncn(Cc2ccccc2)c2nc(SCC(=O)O)[nH]c12	i
O=C(Nc1ccccc1N1CCOCC1)c1ccc(-c2cccc(Cl)c2)o1	46%
FC(F)(F)c1ccccc1-n1c(-c2ccc3ccccc3n2)n[nH]c1=S	10%
CCOC(=O)c1ccc(NC(=O)CCc2ccc(C)o2)cc1	i
CC(NC(=O)c1ccc(C(C)(C)C)cc1)C1CCCO1 (stereo not drawn)	2%
CC(C(=O)Oc1ccc(Br)cc1)N1C(=O)c2ccccc2C1=O (stereo not drawn)	i
COc1cc(C(=O)Nc2nc3c(s2)CCCC3)c([N+](=O)[O-])cc1OC	i
COc1ccc(CCNC(=S)Nc2ccc(OC(F)F)c(Cl)c2)cc1OC	i
CCc1cccc(C)c1NC(=O)CSc1nnc(-c2ccc(Cl)cc2Cl)n1C	i
O=C(CC(NCc1cccnc1)C(=O)O)NN(c1ccccc1)c1ccccc1 (stereo not drawn)	i
COc1nc(C)ccc1-c1noc(-c2cccc([N+](=O)[O-])c2)n1	i
Cc1ccc(Cl)cc1N1CCN(C2CC(=O)N(c3ccccc3F)C2=O)CC1 (stereo not drawn)	i
Cc1ccc(S(=O)(=O)Nc2ccc(NC(=O)Nc3cccc(C(F)(F)F)c3)cc2)cc1	1.1µg/mL*
COc1ccc(OC)c(NC(=O)C(=O)NC2CCCCC2)c1	2%
CS(=O)(=O)n1c(=O)oc2ccccc21	i
COc1cc(C(=O)Oc2cc3oc(=O)c4c(c3cc2Cl)CCCC4)cc(OC)c1OC	i
Cc1ccc(-c2csc(NC(=O)c3ccc4ccccc4c3)n2)cc1	5%
CCS(=O)(=O)N1CCN(S(=O)(=O)c2ccc(F)cc2)CC1	i
CC(C)Oc1ccc(NC(=O)c2cc3cc(Br)ccc3oc2=O)cc1	i
CC(C)(C)C(=O)Nc1ccc(S(=O)(=O)Nc2ccccn2)cc1	i
Cc1ccc(N2C(=S)N(C)C3CS(=O)(=O)CC32)cc1 (stereo not drawn)	i
Cc1ccccc1CNS(=O)(=O)c1ccc(Br)s1	11%
Cc1cccc(Nc2nnc(-c3cc4ccc(O)cc4oc3=O)s2)c1	i
COc1ccc(-c2ccc(OC)cc2C(=O)O)cc1	i
COc1cc(OC)cc(-c2nnc(SCC(=O)Nc3ccc(Cl)cc3)n2-c2ccc(F)cc2)c1	0%
O=c1c2cnn(-c3ccccc3)c2ncn1Cc1ccccc1	?
O=C(Nc1nnc(Cc2ccccc2)s1)c1cccc([N+](=O)[O-])c1	i
Cc1cccc(OCC(=O)NCc2ccccc2)c1	i
CCOc1ccc(NC(=S)NCCCn2nccc2C)cc1	i
Cc1ccc(S(=O)(=O)c2nc(S(=O)(=O)Cc3ccccc3)sc2N(C)C)cc1	5%
COc1ccc(/C=C(/C#N)c2cccc([N+](=O)[O-])c2)cc1OC	i
O=C(O)C1C2C=CC(C2)C1C(=O)NCCc1ccncc1 (stereo not drawn)	i
COC(=O)c1sc2cc(NC(=S)Nc3ccc4c(c3)CCC4)ccc2c1Cl	i
C=CCn1c(SCC(=O)Nc2sc(C)c(C)c2C(=O)OCC)nc2sc(C)c(C)c2c1=O	i
COc1ccc(CNC(C)(C)C)cc1	4%
CS(=O)(=O)N1CCN(c2ccc(NC(=O)c3sc4ccccc4c3Cl)cc2)CC1	i
N#C/C(=C/c1cc2c(cc1Cl)OCO2)c1ccc(F)cc1	i
O=C(CSc1ncn[nH]1)c1ccc2c(c1)OCCO2	i
Cc1ccc(C(=O)C(C)Oc2ccc(NC(=O)c3ccccc3[N+](=O)[O-])cc2)cc1 (stereo not drawn)	4%
Cc1ccc(-c2nn3c(CC#N)nnc3c3ccccc23)cc1	i
CC1(C)CC(NC(=O)COc2ccc3ccccc3c2)CC(C)(C)N1	i
O=C(COc1ccc(F)cc1)N1CCC(c2ccccc2)C1 (stereo not drawn)	i
Cc1ccc(-c2nnc(N3CCN(C(=O)CSc4nc5ccccc5o4)CC3)c3ccccc23)cc1	?
COc1cc(NC(=O)c2ccc(-c3ccc(Cl)cc3)o2)ccc1NC(=O)c1cccs1	47%
Cc1ccc(C)c(NCC(=O)c2ccc(Br)cc2)c1	i
The results go on.
SMILES	Mtb growth
CCOCCC(=O)Nc1ccccc1Sc1ccccc1	i
COc1ccc(NC(=O)COc2ccccc2Br)cc1Cl	i
Cc1nc(NC(=O)c2ccccc2[N+](=O)[O-])sc1C(=O)N(C)C	1%
Cc1cccc(N2C(=O)SC(Nc3ccc(C)c(Cl)c3)C2=O)c1 (stereo not drawn)	2%
COc1ccc(S(=O)(=O)N2CCOCC2)cc1-c1nnc2c3ccccc3c(C)nn12	i
COc1ccc(NC(=O)Nc2ccccc2-c2ccccc2)cc1OC	i
CCC(C(=O)O/N=C(\N)c1cccc(C)c1)c1ccccc1 (stereo not drawn)	i
Cc1cc(C)c(S(=O)(=O)NCc2ccncc2)cc1C	i
COc1ccc(S(=O)(=O)Nc2cccc(C(C)=O)c2)cc1Br	i
Cn1c(NC(=O)C(Cc2ccccc2)N2C(=O)c3ccccc3C2=O)nc2ccccc21 (stereo not drawn)	i
CS(=O)(=O)N(CC(=O)Nc1ccccc1-c1ccccc1)c1cccc(C(F)(F)F)c1	1%
O=C(NNC(=O)C(O)(c1ccccc1)c1ccccc1)Nc1cccc(C(F)(F)F)c1	i
OCCc1ccc(-c2ccc(Cl)cc2)o1	i
CCc1ccc(-n2c(SCC(=O)Nc3cccc(C)c3)nnc2-c2ccccc2)cc1	i
O=C(CN1CCOCC1)Nc1c(Cl)cc(Cl)cc1Cl	i
COc1c(Cl)cc(Cl)cc1C(=O)NC(=S)Nc1ccccc1N1CCOCC1	i
CC(=O)c1ccccc1OCc1c(F)cccc1Cl	i
O=S(=O)(c1cccc(C(F)(F)F)c1)N1CCN(c2ccccc2)CC1	i
C=C1C2(C(=O)Nc3ccc(Br)cn3)CCC(C2)C1(C)C (stereo not drawn)	1%
CS(=O)(=O)c1ccc2nc(NC(=O)CN3CCC(Cc4ccccc4)CC3)sc2c1	12%
Cc1occc1C(=O)Nc1ccc(S(=O)(=O)N2CCN(C)CC2)cc1	2%
Cc1cccc2sc(NC(=O)C(Cl)Cl)nc12	i
O=C(NCc1ccc(Cl)c(Cl)c1)C1CCCCC1	i
COc1cccc(-c2coc3cc4oc(=O)c5cc(OC)ccc5c4cc23)c1	i
c1ccc(CCNc2nc(-c3ccccn3)cs2)cc1	0.4µg/mL*
Cc1cc2oc(C(=O)Nc3c(C)n(C)n(-c4ccccc4)c3=O)c(C)c2cc1C	16%
CCCNC(=S)Nc1ccc(Br)cc1	i
CCOC(=O)C1=C(C)N=c2s/c(=C\c3ccc(C(C)C)cc3)c(=O)n2C1c1ccc(Cl)cc1 (stereo not drawn)	12%
CC(=O)c1c(C)nn(C(C)CC(=O)O)c1C (stereo not drawn)	i
COc1ccc(OC)c(NC(=O)COc2ccc3c4c(c(=O)oc3c2)CCCC4)c1	i
O=C(Nc1ccc(N2CCOCC2)cc1)c1ccccc1I	i
COc1cc(NS(=O)(=O)c2cc(C)ccc2OC)c(OC)cc1Cl	i
CCOc1cccc(OCCCOc2cccc3cccnc23)c1	i
CC(=O)Nc1nc(-c2cccs2)nc2c1c(=O)oc1ccccc12	i
COc1ccc(S(=O)(=O)Nc2ccccc2OC)cc1C	1%
CC1=C(C(=O)Nc2ccc(F)c(F)c2)C(c2c(Cl)cccc2Cl)NC(=O)N1 (stereo not drawn)	7%
CC(C)Oc1ccc(CNC(=O)C2(c3ccccc3)CCCC2)cc1	3%
COc1ccc(C(=O)O)cc1NC(=S)NC(=O)CSc1ccc(Cl)cc1	1%
C=CCOc1ccc2ccccc2c1CNc1nn[nH]n1	i
Cc1ccc(NC(=O)CSc2nc3sc4c(c3c(=O)n2-c2ccccc2)CCCC4)c(C)c1	i
Cc1ccc(S(=O)(=O)N(CC(=O)NCC2CCCO2)Cc2ccccc2)cc1 (stereo not drawn)	i
COc1ccc(C(=O)Nc2nnc(SCc3ccc(Br)cc3)s2)cc1OC	i
CCn1c2ccccc2c2cc(NC(=O)C34CCC(C)(C(=O)C3)C4(C)C)ccc21 (stereo not drawn)	12µg/mL*
O=C(Cn1c(=O)n(CC(=O)NC2CCCCC2)c2ccccc21)NC1CCCCC1	i
COc1ccccc1OCCCn1c(-c2ccc(Cl)cc2Cl)nc2ccccc2c1=O	2%
O=C1C2C3c4ccccc4C(C(=O)O)(c4ccccc43)C2C(=O)N1c1ccc(Cl)cc1 (stereo not drawn)	i
O=C(CN(C1CCCCC1)S(=O)(=O)c1ccc(Cl)cc1)NCc1cccnc1	i
O=C(COc1ccccc1)Nc1ccc(S(=O)(=O)N2CCCCC2)cc1	i
O=C(Cc1ccccc1)N1CCN(C2CCCC2)CC1	i
O=C(Nc1sc2c(c1C(=O)NCc1ccco1)CCCC2)c1cccs1	i
Additional results.
SMILES	Mtb growth
C=CCn1c(CNC(=O)c2ccccc2Cl)n[nH]c1=S	i
COc1cc(C(=O)N2CCC(C(=O)Nc3ccc(Cl)cc3)CC2)cc(OC)c1OC	i
Clc1ccc(OCc2nn3c(Cc4ccccc4)nnc3s2)c(Cl)c1	i
Cc1cc(N(CC(=O)NCCSCc2ccco2)S(C)(=O)=O)ccc1Br	i
COc1ccc(C(=S)N2CCCC2)cc1OC(=O)c1cccc([N+](=O)[O-])c1	i
CCC(C)c1ccc(OCC(=O)Nc2ccc3[nH]c(=O)[nH]c3c2)cc1 (stereo not drawn)	i
Oc1ccc(NCc2c(Cl)cccc2Cl)cc1	i
Cc1ccc(S(=O)(=O)NC(C)(C)CSc2nnc(N)s2)cc1	i
CN(c1ccc(C(=O)NCC2CCCO2)cc1)S(C)(=O)=O (stereo not drawn)	i
Cc1cc(C)cc(OCC(=O)c2ccc(C)c(C)c2)c1	i

Exported in markdown: part of the list above.
| SMILES | Mtb growth |
| --- | --- |
| CCN(CC)S(=O)(=O)c1ccc(NC(=O)c2ccc(C(C)(C)C)cc2)cc1 | 7% |
| Oc1ccc(-c2nnc(-c3ccc(O)cc3)nn2)cc1 | 26% |
| COC(=O)c1ccccc1NC(=O)C1CC(=O)N(c2ccc(C(C)C)cc2)C1 (stereo not drawn) | 2% |
| Cc1nc2ccccc2n1Cc1cccc(Cl)c1 | i |
| CC(C)OC(=O)C1C2C=CC3(CN(C4CCCCC4)C(=O)C13)O2 (stereo not drawn) | i |
| N=c1ncn(Cc2ccccc2)c2nc(SCC(=O)O)[nH]c12 | i |
| O=C(Nc1ccccc1N1CCOCC1)c1ccc(-c2cccc(Cl)c2)o1 | 46% |
| FC(F)(F)c1ccccc1-n1c(-c2ccc3ccccc3n2)n[nH]c1=S | 10% |
| CCOC(=O)c1ccc(NC(=O)CCc2ccc(C)o2)cc1 | i |
| CC(NC(=O)c1ccc(C(C)(C)C)cc1)C1CCCO1 (stereo not drawn) | 2% |
| CC(C(=O)Oc1ccc(Br)cc1)N1C(=O)c2ccccc2C1=O (stereo not drawn) | i |
| COc1cc(C(=O)Nc2nc3c(s2)CCCC3)c([N+](=O)[O-])cc1OC | i |
| COc1ccc(CCNC(=S)Nc2ccc(OC(F)F)c(Cl)c2)cc1OC | i |
| CCc1cccc(C)c1NC(=O)CSc1nnc(-c2ccc(Cl)cc2Cl)n1C | i |
| O=C(CC(NCc1cccnc1)C(=O)O)NN(c1ccccc1)c1ccccc1 (stereo not drawn) | i |
| COc1nc(C)ccc1-c1noc(-c2cccc([N+](=O)[O-])c2)n1 | i |
| Cc1ccc(Cl)cc1N1CCN(C2CC(=O)N(c3ccccc3F)C2=O)CC1 (stereo not drawn) | i |

(more compounds)
SMILES	Mtb growth
O=C(Nc1cnn(Cc2ccc(Cl)cc2)c1)c1cc2ccccc2oc1=O	?
COC(=O)C(C(=O)N1CCN(C)CC1)C1CCCCCC1 (stereo not drawn)	i
CCN(C(=S)NCC1CCCO1)C1CCCCC1 (stereo not drawn)	i
COc1ccc(N2CCN(C(=O)Nc3ccc([N+](=O)[O-])cc3)CC2)cc1	1%
COc1ccc(N2CCN(C(=O)c3ccc(C)cc3Cl)CC2)cc1	i
Cc1ccc(S(=O)(=O)N2CCCC2C(=O)Nc2ccc(Br)cc2)cc1 (stereo not drawn)	i
CCCc1cc(C(=O)OC)c(NC(=O)OCC)s1	i
CCC1(C)Cc2nc3nc(SCC(=O)OC)n(Cc4ccccc4)c(=O)c3cc2CO1 (stereo not drawn)	i
O=C(Nc1ccon1)c1ccc(Cl)s1	i
COc1ccc(S(=O)(=O)Nc2ccc(Br)c(C)c2)c(Cl)c1Cl	40%
O=Cc1cc([N+](=O)[O-])ccc1OCc1ccccc1Cl	i
CC(=O)c1ccc(NC(=O)NNC(=O)C(C)Oc2cccc3ccccc23)cc1 (stereo not drawn)	i
Cc1ccc(CC(=O)Nc2ccc(Br)cc2F)cc1	i
O=C1N(c2ccc(Br)cc2)C(c2cccs2)C12CCCC2 (stereo not drawn)	3%
C=CCn1c(-c2ccc(N(C)C)cc2)nc2ccccc21	4%
O=S(=O)(Nc1ccccc1F)c1cccc(Cl)c1	i
CC1=C(C(=O)Nc2ccccn2)C(c2ccccc2Cl)NC(=S)N1 (stereo not drawn)	4%
CCOC(=O)c1cc(-c2ccccc2)sc1NC(=S)NC(C)C1CCCO1 (stereo not drawn)	i
NC(=O)C1CCN(C(=O)CN(c2cccc(C(F)(F)F)c2)S(=O)(=O)c2ccccc2)CC1	i
COc1ccccc1OCc1ccc(C(=O)Nc2ccccc2F)cc1	i
C=CCSc1nc(C)c(CCC(C)C)c(=O)[nH]1	i
COCCNC(=O)C(C)Oc1cccc(Cl)c1 (stereo not drawn)	i
O=c1[nH]c(/C=C/c2ccc(OCc3ccc(F)cc3)cc2)c([N+](=O)[O-])c(=O)[nH]1	i
CCN1CCN(CC(O)COc2ccccc2)CC1 (stereo not drawn)	0%

Fetched by structure from above (two):
SMILES	Mtb growth
C=CCSc1nc(C)c(CCC(C)C)c(=O)[nH]1	i
O=c1[nH]c(/C=C/c2ccc(OCc3ccc(F)cc3)cc2)c([N+](=O)[O-])c(=O)[nH]1	i

Screens: PubChem, Southern Research Institute

Some of the compounds tested, so the mix of outcomes need not match the whole.
